# gsp agonist: activates gsp, the McCune-Albright syndrome mutation. gsp mutant cells, cAMP HTRF, 30 min; control for the full effect not named in the record. Potency, µM (top dose mostly 76.9 µM), without a hit: at the highest dose activation (cAMP increase), usual class: activators. actives 0.13% (n = 340,000); active = well fitted activation curve with a large enough effect; inconclusive = small, poorly fitted or top-dose-only effect, or another doubt; inactive = no such curve, though single readings can be large or run the other way; cell line not stated here;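 also: phosphodiesterase inhibitor Ro 20-1724 added with compounds to block cAMP breakdown; potency is read from the fitted curve at half-maximal effect; nearly all actives have a fitted effect of over 60% in size; about a fifth of the inactives were tested at one dose only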
#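 Cells stably selected in G418 were plated at 2000/well, grown 16-24 hr, then given compounds in DMSO with the PDE inhibitor […] (300 uM solution added) for 30 min at 37C; cAMP was read by HTRF.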
# gsp antagonist: gsp mutant antagonism; gsp-mutant cells, cAMP HTRF, 30 min; control for the full effect not named in the record; Potency, µM (titrated, usually from 76.9 µM), without a hit: at the top dose activity change, negative = inhibition, usual class: inhibitors; actives 0.4% (n = 340,000); active = falling curve of any shape with a large fitted effect; inconclusive = falling curve, mostly with a smaller effect; inactive = flat or rising curve; cell line not stated here;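 also: intracellular cAMP measured with PDE inhibitor Ro 20-1724 present during compound exposure; potency is read from the fitted curve at half-maximal effect; % is scaled to controls: 0 for no effect and ±100 for the full control effect; nearly all actives have a fitted effect of over 65% in size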
#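 Cells in G418 medium, seeded 16-24 h, 37C; buffer exchange to DPBS + 1 mM CaCl2, 0.5 mM MgCl2, 0.05% BSA; cpds in DMSO + […] (300 uM stock), 30 min 37C; HTRF cAMP detection.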
# CtBP-E1A inh: blocks the CtBP interaction with E1A; AlphaScreen GST-E1A/His-CtBP binding, 1536-well; stronger effect = lower value; control for the full effect not named in the record; activity change, % (concentration not given with the values); actives 0.49% (n = 340,000); in the data active means activity change below about -65%; inconclusive means about -30% to -65%; inactive means above about -30%; also: % is scaled to controls: 0 for no effect and ±100 for the full control effect
#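 GST-E1A and His-tagged CtBP (125 nM each as 5X stock) were preincubated with pin-transferred compound for 2 h at 37 °C in the dark, then glutathione donor and nickel acceptor beads were added for 1 h before AlphaScreen reading.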
# Six1-Eya2 blk: blocks human Six1 binding to Eya2; Q15475+O00167; AlphaScreen GST-Six1/His-Eya2 binding, biochemical; stronger effect = lower value; control for the full effect not named in the record; activity change, % (concentration not given with the values); actives 0.56% (n = 360,000); in the data active = activity change below about -65%; inconclusive = about -30% to -65%; inactive = above about -30%; also: % is scaled to controls: 0 for no effect and ±100 for the full control effect
# Target sequence (O00167 whole entry, looked up): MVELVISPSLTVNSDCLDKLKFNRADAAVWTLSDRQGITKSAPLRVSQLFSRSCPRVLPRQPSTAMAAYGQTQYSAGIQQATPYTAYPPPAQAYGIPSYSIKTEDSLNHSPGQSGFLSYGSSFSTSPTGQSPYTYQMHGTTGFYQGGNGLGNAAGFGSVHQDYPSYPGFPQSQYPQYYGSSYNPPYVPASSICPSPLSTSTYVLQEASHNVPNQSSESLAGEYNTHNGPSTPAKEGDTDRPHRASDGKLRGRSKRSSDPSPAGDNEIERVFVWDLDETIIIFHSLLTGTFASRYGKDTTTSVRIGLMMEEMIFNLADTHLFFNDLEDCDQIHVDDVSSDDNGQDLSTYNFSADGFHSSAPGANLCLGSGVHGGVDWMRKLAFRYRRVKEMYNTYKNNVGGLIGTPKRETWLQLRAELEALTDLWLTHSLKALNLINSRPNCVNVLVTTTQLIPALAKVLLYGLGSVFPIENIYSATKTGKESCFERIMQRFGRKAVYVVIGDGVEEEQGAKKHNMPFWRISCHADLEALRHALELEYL
# Target sequence (Q15475 whole entry, looked up): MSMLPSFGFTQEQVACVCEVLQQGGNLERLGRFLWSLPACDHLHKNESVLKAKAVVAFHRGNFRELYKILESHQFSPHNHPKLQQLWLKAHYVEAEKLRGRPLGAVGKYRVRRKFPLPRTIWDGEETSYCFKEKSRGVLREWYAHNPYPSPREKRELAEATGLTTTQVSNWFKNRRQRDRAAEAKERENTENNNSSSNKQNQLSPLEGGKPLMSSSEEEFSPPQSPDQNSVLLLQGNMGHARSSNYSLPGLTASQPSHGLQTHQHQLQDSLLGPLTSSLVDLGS
#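 Homogeneous AlphaScreen proximity assay pairing GST-Six1 with His-tagged Eya2 (added as 5X mix: 250 nM and 500 nM) in 50 mM Tris pH 8.0, 300 mM NaCl, 1 mM TCEP. Glutathione donor and nickel acceptor beads; 1 h, 37 °C, dark.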
# D2 potentiator: positive allosteric modulators of human D2 dopamine receptor; P14416; AID 624464; actives 0.23% (n = 360,000); potentiation, % (no concentration beside the values); DiscoveRx D2 beta-arrestin cells, luminescence, 90 min; 100% = 57 uM dopamine signal; active = potentiation of 50% or more; inconclusive = 30% to 50%; inactive = 30% or less;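 also: compound concentration not given in the record; tested on top of an EC20 dose of dopamine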
#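 PathHunter D2 cells, attached overnight at 37 deg C, received compound in DMSO plus dopamine at EC20 (50 nM final) for 90 min at 37 deg C. Beta-arrestin recruitment was read as luminescence after 1 h with detection reagent at ambient temperature.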
# D2 ag: human D2 receptor agonism in beta-arrestin assay; activation, % (concentration not given with the values); DiscoveRx PathHunter D2 beta-arrestin, luminescence, 90 min; 100% = 57 uM dopamine signal; actives 0.084% (n = 360,000); P14416; in the data active = activation above about 40%; inconclusive = about 15% to 40%; inactive = below about 15%; also: compound concentration not given in the record; the text of the record calls up to 30% inactive
#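 DiscoveRx PathHunter D2 beta-arrestin cells (2,100/well) attached overnight, then compound-stimulated 90 min at 37 C in HBSS/10 mM HEPES/0.1% Tween-20 buffer; beta-galactosidase complementation read by luminescence after 1 h at ambient temperature. Dopamine 57 uM final (EC100) as control.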
# The depositor's hits bear a star; ? = inconclusive; / = not tested or not shown; [ ] = remark or other dose.
# Start of the data: the first three records, to show the layout:
SMILES,gsp agonist,gsp antagonist,CtBP-E1A inh,Six1-Eya2 blk,D2 potentiator,D2 ag
Nc1cccc(-c2nnc3n2CCCCC3)c1,3%[15.4 µM],14%,7,7,4,-1.3
NC(=O)COc1ccc(/C=N\NC(=O)CC(=O)NCCc2ccccc2)cc1,22%[15.4 µM],6%,-13,0,-5,-3.3
OC1COCOC1C(O)C1OCOCC1O (stereo not given),7%,9%,7,-1,-5,-3.0

# This part in full, previewed entries included:
SMILES,gsp agonist,gsp antagonist,CtBP-E1A inh,Six1-Eya2 blk,D2 potentiator,D2 ag
Nc1cccc(-c2nnc3n2CCCCC3)c1,3%[15.4 µM],14%,7,7,4,-1.3
NC(=O)COc1ccc(/C=N\NC(=O)CC(=O)NCCc2ccccc2)cc1,22%[15.4 µM],6%,-13,0,-5,-3.3
OC1COCOC1C(O)C1OCOCC1O (stereo not given),7%,9%,7,-1,-5,-3.0
NC(=O)C(F)(F)C12OC3C4C5CC(C6C5C3C61)C42 (stereo not given),-23%,5%,5,4,1,0.7
OCc1ccccc1CNCc1ccccc1,?,4%,3,4,-30,1.1
CN(C)S(=O)(=O)c1ccc(Cl)c(NC(=O)CN2CCC(Cc3ccccc3)CC2)c1,22%[15.4 µM],/,0,-8,-26,1.9
Cc1cc(C)c(NC(=O)CSc2nnnn2-c2cccnc2)c(C)c1,1%,4%,-3,7,0,2.3
CCOC(=O)Cn1c(CCC(=O)O)ccc1-c1ccc(F)cc1,8%,-9%,-2,4,-6,-0.8
Cc1ccccc1N1CC(C(=O)Nc2nnc(SCCN3CCOCC3)s2)CC1=O (stereo not given),?,32µM*,-1,-4,-11,-1.1
Fc1ccccc1NC(=S)N(CCN1CCCCCC1)Cc1cccs1,-13%[15.4 µM],-1%,-2,-2,-12,-2.6
CCNc1nc(Oc2ccc(C#N)cc2)cc(C(F)(F)F)n1,-7%[15.4 µM],3%,7,8,-5,-1.4
COCc1cc(C)nc2sc(C(=O)Nc3ccccc3OC)c(N)c12,7%[15.4 µM],-3%,23,52,-5,8.7
CC1CCc2nc(N)c(C#N)c(-c3cccnc3)c2C1 (stereo not given),-46%,-3%,1,1,-4,-4.9
CCc1ccc(CN(C(=O)COc2c(C)cccc2C)C2CCS(=O)(=O)C2)cc1 (stereo not given),-27%,-13%,2,0,-9,0.2
CC1(C)CC(=O)C(C=NCCN2CCN(C(=O)CCl)CC2)=C(O)C1,-1%,3%,/,4,-20,-5.6
O=C(/C=C/c1ccc2c(c1)OCO2)N1CCN(c2n[nH]c(=O)[nH]c2=O)CC1,-6%[15.4 µM],-1%,-17,-18,2,-2.0
C#CCN(C[C@@H]1[C@@H](OC(=O)NCc2ccco2)[C@@H](OC(=O)NCc2ccco2)Cn2c(=O)ccc(=O)n21)S(=O)(=O)c1ccc(C)cc1,1%,/,0,3,0,-7.0
C[C@H](CO)N1C[C@H](C)[C@@H](CN(C)Cc2ccc(C(=O)O)cc2)OCc2cnnn2CCCC1=O,-99%[inhibitor],/,-18,2,0,-12
Cc1cc(NC(=O)CN2CCN(C)CC2)no1,-23%,-2%,/,0,-11,-8.1
O=C(/C=C/c1ccccc1)Nc1ccc(N2CCCCC2)cc1,-1%,3%,9,-4,-17,-0.3
O=C(O)c1ccc(N2C(=O)c3[nH]nc(-c4ccccc4)c3C2c2ccccc2)cc1 (stereo not given),-2%,-7%,-13,6,-9,0.8
O=C(CCNC(=O)c1ccccc1)Nc1ccc(S(=O)(=O)Nc2ncccn2)cc1,2%,0%,5,4,-6,1.0
COc1ccc(Oc2nc(C(F)(F)F)nc3ccccc23)cc1,11%,-11%,26,36,8,0.9
CCCCNC(=O)CNC(=O)c1nn(-c2ccc(OC)cc2OC)c(=O)c2ccccc12,17%,-5%,/,3,-8,-0.4
N/C(=N\OC(=O)c1ccco1)c1ccccn1,-36%[inhibitor],-3%,/,-2,1,6.1
CC1CCCCC12NC(=O)N(CC(=O)NCc1cccs1)C2=O (stereo not given),-43%[inhibitor],/,6,2,-2,-0.8
CC(NC(=O)CCl)c1ccc(Cl)c(Cl)c1 (stereo not given),-2%,7%,-6,2,-5,-7.4
CCc1nc(N2CCN(C(=O)c3ccco3)CC2)c2c3c(sc2n1)CCCC3,24%,?,-20,-18,1,-1.8
Cn1c(=O)cc(N2CCOCC2)[nH]c1=O,30%,8%,-1,-1,-10,-3.6
Cc1cnc(C(=O)N2CCN(S(=O)(=O)c3cccc(Br)c3)CC2)cn1,-1%,-1%,2,-5,-1,-0.7
COc1cc2c(cc1OC)CN(c1nc(CN3CCOCC3)nc3sc4c(c13)CCC(C)C4)CC2 (stereo not given),-1%,?,?,?,-1,2.1
COc1ccc(C2CC(C)=C(C#N)S(=O)(=O)C2C#N)cc1 (stereo not given),6%[15.4 µM],-13%,0,13,4,-0.4
Cn1c(NC(=O)c2ccccc2)c(-c2ccccn2)c(=O)c2ccccc21,2%,5%,-1,-1,-3,-0.3
CCOC(=O)C1CCN(C(=O)COC(=O)c2ccccc2C(=O)c2ccc(Cl)cc2)CC1,?,-7%,-1,5,-3,-5.5
Cc1onc(-c2c(Cl)cccc2Cl)c1C(=O)Nc1nccs1,-25%,?,-9,-8,20,12
CCCN(CC(=O)Nc1ccccc1OC)C(=O)c1ccc2c(c1)NC(=O)C(C)S2 (stereo not given),-104%[inhibitor],-5%,1,8,0,-1.2
CC(C)(C)c1nn(-c2ccccc2)c2[nH]c(=O)c(CNc3ccc4c(c3)OCCO4)cc12,0%,-1%,3,?,-31,-6.8
COc1ccc(CN2CCNC(=O)C2CC(=O)NCc2cn[nH]c2-c2ccccc2)c(F)c1 (stereo not given),-24%,-4%,3,-2,0,-1.5
Cc1ccc(S(=O)(=O)N2CCCC2)cc1C(=O)N1CCN(Cc2ccccc2)CC1,-1%,-5%,-8,7,-7,-2.9
CC(NC(=O)C1CCN(C(=O)Nc2ccccc2)CC1)c1ccccc1Cl (stereo not given),19%,1%,/,5,-6,-2.7
O=C(NNC(=O)C(O)c1ccccc1)NC1CCCCC1 (stereo not given),-18%,11%,0,0,-7,-2.1
N#CCC(=O)N/N=C/c1cccc(Oc2ccccc2)c1,-22%,-1%,1,-9,-1,1.5
COc1cc(C#N)c(NC(=O)CN2CCC(C(N)=O)CC2)cc1OC,-4%,5%,3,3,-4,-0.2
Cc1ccc(NC(=O)CCC(=O)N/N=C/c2ccco2)c(C)c1,-3%[15.4 µM],3%,0,1,-3,2.2
COc1ccc(C(C)=O)cc1Cn1c(=O)cc(C)[nH]c1=O,-1%,1%,2,-2,-1,-0.8
CCC1(c2ccccc2)NC(=O)N(CC(=O)Nc2nnc(C3CC3)s2)C1=O (stereo not given),-28%,11%,0,-2,10,2.2
COc1ccc(CCNc2cc(C)nc3c(-c4ccc(Cl)cc4)cnn23)cc1OC,15%,1%,-3,11,4,1.7
Cc1cc(C)c(C(=O)COC(=O)CCn2c(C)csc2=O)cc1C,-7%,-19%,0,13,-22,-3.2
CCn1c(SCC(=O)N2CCOCC2)nc(O)cc1=O,21%,15%,-5,4,-5,-3.4
Cc1ccc(S(=O)(=O)N2CCN(C(=O)COC(=O)Cc3ccc(F)cc3)CC2)c(C)c1,10%,4%,4,-2,-8,3.1

# Other compounds:
SMILES,gsp agonist,gsp antagonist,CtBP-E1A inh,Six1-Eya2 blk,D2 potentiator,D2 ag
CCN1C(=O)N[C@@H](c2cccc(F)c2)C(C(=O)OC)=C1C,10%,-3%,5,1,-5,-1.2
COc1ccc(/C=C(\NC(=O)c2ccc([N+](=O)[O-])cc2)C(=O)NCCN2CCOCC2)cc1,0%[15.4 µM],-5%,0,1,-8,-0.9
COc1ccc(OC)c2c1CCC1(C2)NC(=O)NC1=O (stereo not given),/,/,0,8,-2,-3.0
CN1C(=O)c2cccc3c(S(=O)(=O)NCc4ccco4)ccc1c23,10%,-11%,-9,-19,-3,-4.4
CCOC(=O)NC(C(F)(F)F)(C(F)(F)F)P(=O)(c1ccccc1)c1ccccc1,-9%,4%,0,9,-8,-1.3
Cc1ccc(SCc2nc(-c3ccccc3)no2)cc1,-7%,-3%,48,80,-2,-3.6
COc1cccc2c3c(c(=O)[nH]c12)CCC(C)(C)O3,-21%,6%,1,2,-8,3.1
Cc1cn([C@H]2C[C@H](O)[C@@H](/C=C/C(=O)NCCCc3ccccc3)O2)c(=O)[nH]c1=O,/,/,-19,7,-8,-3.7
CC1CCC(NC(=O)CC2Oc3ccccc3NC2=O)CC1 (stereo not given),-13%,7%,-23,7,-7,-5.1
Cc1ccc2nc(SCC(=O)Nc3ccc(F)c([N+](=O)[O-])c3)[nH]c2c1,-36%[inhibitor],?,-10,-5,-11,-0.2
CCN(c1ccc(C)cc1C)S(=O)(=O)c1nnc(NC(=O)C(C)(C)C)s1,-14%[15.4 µM],-5%,-6,-7,-6,-1.5
O=c1[nH]c2cc3ccccc3cc2nc1C(F)(F)F,-7%[15.4 µM],9%,-16,-8,-19,1.4
CCC/C(=N\NC(=O)C1CC1)c1ccccc1,-45%[inhibitor],5%,4,10,-8,-4.8
CCN(CC)C(=O)C1=C(C)N(Cc2ccc(C(C)(C)C)cc2)C(=O)C(CC(=O)NC(c2ccccc2)c2ccccc2)C1 (stereo not given),-38%[inhibitor],/,0,-4,7,-6.8
CCCOC1CCCN(C(=O)c2cc(Cl)c(Cl)cc2C(=O)O)C1 (stereo not given),1%,5%,11,0,-12,1.7
Nc1ccc(N2N=C(N3CCCC3)CC2=O)cc1,?,/,2,-7,4,-1.7
CCCn1c(SCC(=O)NC(C)(C)C)nnc1C(C)C,2%,2%,0,4,-11,-2.8
COc1cc(CC(=O)OCC(=O)NC(C)c2ccccc2)cc(OC)c1OC (stereo not given),-31%[inhibitor],4%,-10,10,15,1.5
CC(C)(C)C(=O)CSc1nc2ccccc2o1,-5%[15.4 µM],-9%,11,10,0,1.4
O=C(C=Cc1ccccc1)c1c[nH]c2ccccc2c1=O,0%,-6%,-23,-7,-8,1.6
Cc1ccc2c(c1)cc1c(=O)n(CC(=O)NCCCc3ccccc3)nc(C)n12,-21%,23%,1,2,-5,-2.9
c1ccc(CCCCN2CCN=C2Nc2ccccc2)cc1,16%,11%,3,-3,-22,-1.6
CC1CCCC(NC(=O)COC(=O)COc2ccc(C#N)cc2)C1C (stereo not given),-5%[15.4 µM],-10%,-3,1,-15,-1.2
N#CC(=C1C=CC(=NO)C(Cl)=C1)c1ccc(Cl)cc1,?,9%,4,-12,10,1.7
CN(CCN1CCOCC1)Cc1nc(-c2cccs2)no1,-1%,4%,0,3,-10,-0.2
COc1ccccc1C(=O)NCC(=O)N/N=C(\C)Cc1ccccc1,-20%,11%,-2,3,-8,-3.0
COC(CNC(=O)c1ccc(CS(=O)(=O)c2c(Cl)cccc2Cl)o1)OC,24%,20%,3,5,-6,7.3
